2A firefly: lowers the firefly signal of an FMDV 2A StopGo reporter | HEK cells with a luciferase reporter of 2A StopGo recoding | 0.23% of 120,000 active | Potency, µM (highest dose often 57.5 µM), without a hit: at the top dose signal change, negative = less light; active = well fitted falling curve with a large enough effect; inconclusive = small, poorly fitted or top-dose-only effect; inactive = no such curve, though single readings can be large or run the other way; note: nearly all actives have a fitted effect of over 60% in size; overnight with compound
2A Renilla: lowers the Renilla signal of an FMDV 2A StopGo reporter | HEK cells with a luciferase reporter of 2A StopGo recoding | 0.32% of 120,000 active | Potency, µM (titrated, usually from 57.5 µM), for inactives: at the top dose signal change, negative = less light; active means well fitted falling curve with a large enough effect; inconclusive means small, poorly fitted or top-dose-only effect; inactive means no such curve, though single readings can be large or run the other way; note: nearly all actives have a fitted effect of over 55% in size; overnight with compound
Active calls of the source: *; ? = inconclusive; [ ] = remark or other dose. % is set by controls: 0 for no effect and ±100 for the full control effect; potency is the fitted concentration of half-maximal effect. An excerpt (hit frequency here may not be typical).

(1) CCC(C)C(NC(=O)C(C)NC(=O)CNC(=O)CNC(=O)OCc1ccccc1)C(N)=O (stereo not given)
(2) CC(C)CCNC(=O)CCS(=O)(=O)c1cc2c(cc1Br)CCN2C(=O)C1CC1
(3) CCOCCCn1c(SCC(=O)Nc2ccccc2OC)nc2c(oc3ccccc32)c1=O
(4) O=C(Cc1ccccc1)N(Cc1cccnc1)c1nc2c(Cl)cccc2s1
(5) CC1CC(=O)Nc2ccccc2N1C(=O)Cn1cnc2cc(F)ccc2c1=O (stereo not given)

Compound	1	2	3	4	5
2A firefly	-9.2%	7.9%	-15.4%	-27.9%	-2.8%
2A Renilla	-7.9%	13.0%	26.4%	17.6%	-11.2%

(6) O=C(Nc1nc2ccccc2[nH]1)c1ccc(Cl)c(S(=O)(=O)N2CCc3ccccc32)c1
(7) C=C(C)COc1ccc2c(=O)c(Oc3ccc(OC)cc3)c(C)oc2c1
(8) Cc1cc(C)cc(NC(=O)c2cc(C)nc3c2c(C)nn3-c2ccccc2)c1
(9) COC(=O)c1ccc(COC(=O)c2oc3ccccc3c2COC(C)C)o1
(10) Cc1ccc(CSc2nnc(COc3ccc(Cl)cc3)n2C)cc1

Compound	6	7	8	9	10
2A firefly	?	45.5%[activator]	-15.4%	0.2%	-1.2%
2A Renilla	?	22.1%	-11.6%	13.5%	34.0%[activator]

(11) CCc1ccc(-c2csc(/C(C#N)=C\Nc3ccccc3C)n2)cc1
(12) COc1cccc(-n2ccn(CC(=O)Nc3ccccc3F)c(=O)c2=O)c1
(13) COC(=O)CNC(=O)Nc1cc(C(=O)NCc2ccc(C)cc2)ccc1N1CCCC1
(14) O=C(c1ccc2c(c1)N(Cc1ccccc1F)C(=O)c1ccccc1S2(=O)=O)N1CCN(c2ccccc2F)CC1
(15) Cc1ccc(NC(=O)c2cc(S(=O)(=O)N3CCCCCC3)ccc2F)cc1F

Compound	11	12	13	14	15
2A firefly	13.0%	0.0%	-7.1%	-5.2%	25.8%
2A Renilla	6.8%	-8.2%	-5.4%	0.4%	14.6%

(16) Cc1c(S(=O)(=O)N2CCCC2c2ccc(F)cc2)cnn1C(F)F (stereo not given)
(17) Cc1ccc(N=C2NN=C(c3c[nH]c(C(=O)N4CCCC4)c3)CS2)c(C)c1
(18) CCC(C)(C)NC(=O)c1cc2cc(Br)ccc2oc1=O
(19) Cc1nc2c(C)cccn2c1/C(O)=C1\C(=O)C(=O)N(CCN2CCOCC2)C1c1ccccc1F (stereo not given)
(20) Cc1ccc(C(=O)NC2CCCCC2C)c(C)c1 (stereo not given)

Compound	16	17	18	19	20
2A firefly	2.7%	50.3%[activator]	0.0%	1.3%	134.5%[activator]
2A Renilla	10.5%	55.4%[activator]	6.4%	-10.2%	24.1%

(21) CCc1nn2c(ncc3c(=O)n(CCN4CCOCC4)ccc32)c1-c1ccc(Cl)cc1
(22) N#Cc1c[nH]n2c(NC3CCCCC3)c(-c3cccc(Cl)c3)nc12
(23) O=C(Nc1ccc(S(=O)(=O)N2CCOCC2)cc1)c1cc(Cl)ccc1NS(=O)(=O)c1ccc(Cl)s1
(24) Cc1ccc2nc(-c3ccc(C)o3)c(Nc3ccc4c(c3)OCCO4)n2c1
(25) O=C1N=C(O)CN1/N=C/c1ccc(-c2ccc([N+](=O)[O-])cc2)o1

Compound	21	22	23	24	25
2A firefly	-5.4%	13.7%	-19.7%	84.9%[activator]	17.7%
2A Renilla	-2.7%	19.6%	61.5%[activator]	14.4%	20.2%

(26) O=C(Cn1ncc2c3ccccc3n(Cc3ccccc3)c2c1=O)NCc1ccccc1
(27) COC(=O)[C@@H](NC(=O)c1snnc1-c1ccc(OC)cc1)C(C)C
(28) CC(Oc1ccc(Cl)cc1)C(=O)O (stereo not given)
(29) N#Cc1c(N2CCN(C(=O)C(=O)N3CCOCC3)CC2)nc(-c2ccccc2)c2c1CCCC2
(30) O=c1cc(CSc2nnnn2-c2ccccc2)c2ccc(O)cc2o1

Compound	26	27	28	29	30
2A firefly	-8.8%	-8.6%	0.0%	-15.8%	0.0%
2A Renilla	-4.9%	-10.8%	8.9%	0.0%	32.3%

(31) Cn1nc(-c2ccc(C(=O)Nc3cccc(Cl)c3)cc2)c2ccccc2c1=O
(32) N#Cc1cccc(OCc2ccc(-c3ccccc3)cc2)c1
(33) CCC(C)(C)NC(=O)c1ccc(C(=O)O)cc1
(34) O=C(OCc1noc(-c2ccco2)n1)c1cncc(Br)c1
(35) Cc1cc(C)n(-c2nc(C)c(C)c(=O)n2CC(=O)Nc2ccc(OC(F)(F)F)cc2)n1

Compound	31	32	33	34	35
2A firefly	-2.5%	140.9%[activator]	18.5%	-8.6%	-2.5%
2A Renilla	-8.8%	3.8%	-0.6%	3.0%	7.3%

For reference, some entries already given:
(1) CCC(C)C(NC(=O)C(C)NC(=O)CNC(=O)CNC(=O)OCc1ccccc1)C(N)=O (stereo not given)
(2) CC(C)CCNC(=O)CCS(=O)(=O)c1cc2c(cc1Br)CCN2C(=O)C1CC1
(3) CCOCCCn1c(SCC(=O)Nc2ccccc2OC)nc2c(oc3ccccc32)c1=O

Compound	1	2	3
2A firefly	-9.2%	7.9%	-15.4%
2A Renilla	-7.9%	13.0%	26.4%

Continuation.
(36) O=C(CN(C1CCCCC1)S(=O)(=O)c1ccc(Br)cc1)N1CCOCC1
(37) Cc1ccc(S(=O)(=O)Nc2ccc3oc(C)nc3c2)c(C)c1
(38) COCCN1C(=O)c2n[nH]c(-c3ccco3)c2C1c1ccc(C(=O)OC)cc1 (stereo not given)
(39) Cc1ccc2[nH]c(C(=O)Nc3ccccc3)cc2c1
(40) COC(=O)[C@@H]1CC2=CC(=O)CC[C@]2(C)[C@@]23O[C@@H]2C[C@@]2(C)[C@@H](CC[C@@]24CCC(=O)O4)[C@H]13

Compound	36	37	38	39	40
2A firefly	1.0%	0.0%	-5.0%	163.6%[activator]	-18.1%
2A Renilla	218.7%[activator]	296.8%[activator]	3.1%	50.6%[activator]	-9.3%

(41) Cc1ccc(-c2cnoc2NC(=O)CSc2nc(-c3ccc(Cl)cc3)cc(=O)[nH]2)cc1
(42) COc1ccc(NC(=O)CC(C)C)c2cccnc12
(43) O=C1c2[nH]nc(-c3ccccc3O)c2C(c2cccc(OCc3ccccc3)c2)N1CCO (stereo not given)
(44) COC(=O)c1cc2sc(Cl)cc2n1Cc1cc(C)ccc1C
(45) CCn1ncc2c(C(=O)Nc3cc(OC)cc(OC)c3)cc(-c3cccs3)nc21

Compound	41	42	43	44	45
2A firefly	35.7%[activator]	-1.1%	-13.9%	-15.3%	27.1%
2A Renilla	30.2%[activator]	-7.9%	-1.3%	-9.1%	13.7%

(46) CC(=O)c1cccc(NC(=O)c2ccc3c(c2)NC(=O)CS3)c1
(47) C#CCN(CCC(=O)NC(N)=O)Cc1ccc(C)cc1
(48) COc1cc(C#N)ccc1OC(C)C(=O)Nc1c(C)cc(C)cc1C (stereo not given)
(49) Cc1oc(-c2ccccc2)nc1CC(=O)N(C)CC(=O)Nc1ccc(OC(F)(F)F)cc1
(50) CC1Cc2cc(S(=O)(=O)NCc3ccc(Cl)cc3)ccc2N1C(=O)C1CCC1 (stereo not given)

Compound	46	47	48	49	50
2A firefly	0.0%	9.4%	-0.1%	8.2%	-8.9%
2A Renilla	-3.0%	-0.8%	-4.9%	9.0%	-4.7%

(51) Cc1ccc2nc(C)c(C(=O)N3CCN(Cc4ccccc4)CC3)cc2c1
(52) COc1ccc(OC)c(C2CCCN2C(=O)Cn2cccnc2=O)c1 (stereo not given)
(53) CC(=O)NCC(=O)N(c1ccc(C)cc1)C1(C(=O)Nc2ccc(C)cc2)CCCCC1
(54) CCn1c(=O)n(CCC(=O)Nc2ccccc2C)c2ccccc21
(55) Cc1cccc(C)c1OCc1cc(=O)n2ccsc2n1

Compound	51	52	53	54	55
2A firefly	-6.8%	-10.3%	-10.3%	-6.2%	54.0%[activator]
2A Renilla	-16.5%	-9.6%	-2.2%	-7.7%	22.8%

Taken from above:
Value for cpd 40 under 2A Renilla: -9.3%
Value for cpd 55 under 2A firefly: 54.0%[activator]

The listing picks up, starting two compounds before the break.
(54) CCn1c(=O)n(CCC(=O)Nc2ccccc2C)c2ccccc21
(55) Cc1cccc(C)c1OCc1cc(=O)n2ccsc2n1
(56) COC(=O)c1ccc(NC(=O)C(=O)NCCc2sc(-c3cccc(F)c3)nc2C)cc1
(57) Cc1ccc(CNCCc2ccccc2)s1
(58) COc1ccc(NC(=O)c2nc(SCc3ccc(F)cc3)ncc2Cl)cc1
(59) O=C(Nc1ccc(Br)c(Cl)c1)c1ccc(-c2ccccc2)cc1
(60) Cc1ccc(CNC(=O)Cc2nc(-c3cccs3)oc2C)cc1

Compound	54	55	56	57	58	59	60
2A firefly	-6.2%	54.0%[activator]	-16.3%	13.7%	-8.4%	0.0%	-10.3%
2A Renilla	-7.7%	22.8%	-16.4%	-1.2%	-4.8%	0.3%	3.9%

(61) Cc1ccc(C)c(C(NC(=O)c2ccccc2)c2cccnc2)c1 (stereo not given)
(62) Cn1nc(-c2ccc(C(=O)Nc3ccc(OC(F)(F)F)cc3)cc2)c2ccccc2c1=O
(63) Cc1cc(C)cc(NS(=O)(=O)c2cc3[nH]c(=O)c(=O)[nH]c3cc2C)c1
(64) N#Cc1cccnc1NCCc1coc(-c2ccccc2)n1
(65) COc1ccc(C(C)=O)cc1CO/N=C/c1ccccc1OC(F)F
(66) Cc1c(Cl)cccc1NC(=O)c1n[nH]c(=O)c2ccccc12
(67) Cc1cc(OCC(=O)NCCCn2ccnc2)c2c(C)cc(=O)oc2c1

Compound	61	62	63	64	65	66	67
2A firefly	-4.3%	2.7%	-7.9%	88.6%[activator]	0.0%	15.1%	2.7%
2A Renilla	10.3%	-6.9%	6.7%	-21.4%	47.5%[activator]	-15.5%	-11.2%

Three entries picked at random from those above:
(11) CCc1ccc(-c2csc(/C(C#N)=C\Nc3ccccc3C)n2)cc1
(65) COc1ccc(C(C)=O)cc1CO/N=C/c1ccccc1OC(F)F
(25) O=C1N=C(O)CN1/N=C/c1ccc(-c2ccc([N+](=O)[O-])cc2)o1

Compound	11	65	25
2A firefly	13.0%	0.0%	17.7%
2A Renilla	6.8%	47.5%[activator]	20.2%

Bioassay records from PubChem.
